# Prx2 Sm inh: inhibitors of Schistosoma mansoni peroxiredoxin 2; S. mansoni Prx2 activity coupled to TGR/GSH (TGR is thioredoxin glutathione reductase), NADPH fluorescence loss, qHTS; some inactives read as strong as hits; actives 0.07% (n = 65,000); Potency, µM; active means full or partial inhibition curve with a strong effect at the top dose; inconclusive means weaker partial or single-point curve; inactive means no accepted curve; note: series up to 57 µM; many of its hits are not listed in these tables
#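 Purified S. mansoni TGR and Prx2 in pH 7.4 phosphate buffer with EDTA and Tween-20 were preincubated with compounds for 15 min. Further NADPH/GSH was added, then a 2.5 mM H2O2 aliquot initiated turnover, followed kinetically by NADPH fluorescence.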
# Anthrax LT inh: anthrax lethal toxin internalization inhibition; Cells, anthrax lethal toxin internalization, FRET ratio (460/530); Potency, µM (titrated, usually from 40 µM), for inactives: at the top dose activity change, negative = inhibition, most hits filed as inhibitors; actives 0.67% (n = 70,000); active = well fitted falling ratio curve with the 530 nm signal flat; inconclusive = other ratio curves, or a change in one channel alone; inactive = flat curves in the ratio and both channels; the % refers to the ratio; note: % is set by controls: 0 for no effect and ±100 for the full control effect; nearly all actives have a fitted effect of over 50% in size; tested in ME-180 cells; beta-lactamase reporter
# * = called active by the depositor; ? = inconclusive; · = no result given; & = joins results of further samples; [ ] = another dose, or the depositor's remark. Potency is the fitted concentration of half-maximal effect. Not all compounds are listed; count on the stated rates, not on these rows.
SMILES,Prx2 Sm inh,Anthrax LT inh
CC(=O)Nc1ccc(OC(=O)N(C)c2ccccc2)cc1,·,-13%
CN1CCN(/C=C2\SC(=S)NC2=O)CC1,>57,?
Cc1cccc(NC(=O)Nc2cccc(C#N)c2)n1,>57,1%
CC(C)CC(NC(=O)C1CCCN1C(=O)OC(C)(C)C)C(=O)NCC(N)=O (centres undefined),>57,2%
c1cncc(-c2nc3c4ccccc4nc(N4CCC(N5CCCCC5)CC4)n3n2)c1,>57,-1%
Cc1ccccc1CS(=O)(=O)CCC(=O)NCCCN1CCOCC1,>57,?
CCCCn1c(O)c(C(C)=NCCN2CCCCC2)c(=O)[nH]c1=O,>57,-10%
O=C(CN1CCOCC1)Nc1ccc(Br)cn1,>57,0%
OC(COCc1ccco1)CN1CCN(C(c2ccccc2)c2ccccc2)CC1 (centres undefined),>57,13%
O=C(Nc1cc(Cl)ccc1Cl)c1noc2c1CCCC2,>57,-16%
O=C(NCc1cccs1)c1noc2c1CCCCC2,>57,-3%
COc1cccc(C2Nc3ccccc3C(=O)N2O)c1O (centres undefined),>57,5%
CCOC(=O)Cc1csc(NC(=O)CN(C)S(=O)(=O)c2cccc3cccnc23)n1,>57,-3%
O=c1c2ccccc2n(Cc2cccc(F)c2)c(=O)n1C1CCCC1,>57,?
Cc1ccc2nsnc2c1S(=O)(=O)NCc1ccncc1,>57,-4%
COC(=O)CCC/C=C1/SCC(NC(=O)c2ccccc2)C1O (centres undefined),>57,-14%
CCOc1ccc2nc(NS(C)(=O)=O)sc2c1,>57,?
CCOC(=O)Nc1cc(=O)c2ccccc2o1,·,-12%
C[C@]1(C(=O)O)[C@@H]2CC[C@@H](O2)[C@@]1(C)C(=O)O,>57,?
C#CCCCCCCCCCCCCCCCC(=O)O,>57,?
COC(=O)COc1ccc(S(=O)(=O)Nc2ccccc2SC)cc1,>57,-8%
C=CCn1c(NCCOC)nc2c1c(=O)n(C)c(=O)n2C,>57,15%
Cc1ccc(C)c(N(CC(=O)N(C)C)S(C)(=O)=O)c1,>57,3%
Cc1ccc(-c2nn3c(C)nnc3s2)cc1NC(=O)c1ccc(-c2ccc(Cl)cc2Cl)o1,>57,9%
CCC(C(=O)N1CCc2cc(OC)c(OC)cc2C1)c1ccccc1 (centres undefined),>57,?

# Going on with the list.
SMILES,Prx2 Sm inh,Anthrax LT inh
COC(=O)Nc1ccc2c(c1)ncn2C1CCCCC1,>57,0%
CCOc1cc(NC(=O)c2ccco2)c(OCC)cc1NC(=O)CCC(=O)NCc1cccnc1,>57,4%
Cn1nc(-c2ccc(Cl)cc2)c2cc(C(=O)N3CCN(C(=O)c4ccco4)CC3)sc21,·,-10%
CC(NC(=O)OC(C)(C)C)C(=O)N1CCCC1C(=O)NC(Cc1ccccc1)C(N)=O (centres undefined),>57,?
Cc1ccnc2c(N3C(=O)C4C5C=CC(C5)C4(C)C3=O)cccc12 (centres undefined),>57,7%
CCOC(=O)N1CCN(C(=O)C2CCC(C(=O)N3CCN(C(=O)OCC)CC3)CC2)CC1 (centres undefined),>57,3%
CC(=O)c1c(N2CCN(c3ccccc3)CC2)nc(=S)n(-c2ccccc2)c1C,·,3%
COc1ccc(N2CCN(Cc3nc(N)nc(Nc4ccccc4OC)n3)CC2)cc1,>57,-4%
COC(=O)C1=C(C)N(c2cccc(C(C)=O)c2)C(=O)C1,>57,8%
O=C(CCCC(=O)N(CC(=O)NC1CCCC1)Cc1ccc(F)cc1)Nc1ccccn1,>57,9%
c1ccc2c(c1)-c1cccc3c1c-2cc1ccccc13,·,?
O=C(c1ccccc1)N1CCN(c2ccccc2F)CC1,>57,-12%
Cn1c(Cn2cnc3ccccc32)nnc1SCC(=O)CC(=O)Nc1ccccc1,>57,-5%
COc1ccc(NC(C)=O)cc1NC(=O)CSc1nc2ncccc2[nH]1,>57,9%
Cc1csc(NC(=O)C2CCCN2C(=O)OCC(C)C)n1 (centres undefined),>57,·
O=S(=O)(Nc1cccc(C(F)(F)F)c1)c1cccnc1,>57,9%
O=C(Cn1cnc2c(cnn2-c2ccccc2Cl)c1=O)N1CCc2ccccc21,>57,5%
O=C(OCc1ccccc1F)c1ccc2c(c1)OCCO2,>57,0%
COC(=O)C1CCN(C(=O)c2ccccc2NC(C)=O)CC1,>57,-11%
COc1ccc2c(=O)cc(-c3ccc(O)cc3)oc2c1,>57,-5%
Cc1ccc(C(c2nnnn2CC2CCCO2)N2CCN(c3cccc(C)c3C)CC2)cc1 (centres undefined),>57,-20%
Cc1cccc(-n2c(N)cc(=O)[nH]c2=S)c1,·,16%
Cn1cnc2c1c(=O)n(Cc1cccc(Br)c1)c(=O)n2C,>57,1%
c1cncc(CNc2ncnc3ccc(-c4cccnc4)cc23)c1,>57,-12%
CCN1CCN(c2cc(=O)n(C3CCCCC3)c(=O)[nH]2)CC1,>57,2%

# Later entries
SMILES,Prx2 Sm inh,Anthrax LT inh
CCC(=O)N(Cc1cc2c(C)cc(C)cc2[nH]c1=O)C1CCCCC1,>57,-1%
Cn1c(C(=O)N2CCN(Cc3ccccc3)CC2)cc2c(=O)n(C)c3ccccc3c21,>57,-17%
Cc1cc(NCc2ccccc2Cl)n2nnnc2n1,>57,0%
CC(C)N(C(=O)CSc1nn2c(=O)c(C(C)(C)C)nnc2s1)c1ccccc1,>57,-6%
Nc1nc(-c2ccc(Br)s2)c(Br)s1,>57,?
Cc1csc(C2=C(O)CN(CCc3ccccc3)C2=N)n1,>57,-10%
Cc1ccc(C(=O)Oc2ccc3c(c2)ncn3C)cc1,>57,-8%
O=C(O)c1c(F)c(F)cc2ccccc12,>57,·
CCn1c(COc2ccc3c(c2)CCCC3)nnc1SCC(=O)Nc1nccs1,·,-8%
Oc1[nH]c2ccccc2c1OCc1ccncc1,>57,3%
CCn1c(CCCNC(=O)c2cccs2)nc2ccccc21,>57,-5%
O=C1CCn2nc(-c3ccc(Cl)cc3)cc2N1,>57,-13%
Cc1cc(=O)[nH]c(=S)[nH]1,·,-6%
CC1CCN(c2nc3c(c(=O)[nH]c(=O)n3C)n2Cc2ccccc2Cl)CC1,>57,15%
Clc1ccc(Nc2nc(NCCN3CCOCC3)nc(N3CCOCC3)n2)cc1,>57,-11%
COC(=O)c1ccc(C(NC(=O)OCc2ccccc2)/C(=C/[C@@H](C)C(=O)NCc2ccc(C)o2)c2cccnc2)cc1 (some centres undefined),·,-1%
Cn1c(=O)[nH]c(=O)c2c1nc(N1CCOCC1)n2CC(O)COc1ccc2ccccc2c1 (centres undefined),>57,28%
COc1ccc(-c2nc3cnc(N4CCN(C)CC4)nc3n(C)c2=O)cc1,>57,?
O=C(NCNC(=O)N[C@H]1C(=O)NC(=O)N1CO)N[C@H]1C(=O)NC(=O)N1CO,>57,-2%[3.58 µM]
O=c1c2nnn(Cc3ccccc3)c2ncn1C/C=C/c1ccccc1,>57,-17%
COc1ccc(S(=O)(=O)N2CCN(C(=O)c3cccs3)CC2)cc1OC,>57,17%
COc1ccc2c(-c3ccccc3)cc(N3CCOCC3)nc2c1,>57,-28%
Cc1cc(C(=O)O)sc1C,>57,3%
CN(C)c1ccc(C(=S)N2CCOCC2)cc1Br,·,-7%
NC(=O)c1cccc(N)c1,>57&>57,1%&-12%

# (next part)
SMILES,Prx2 Sm inh,Anthrax LT inh
O=C(Nc1nc2ccccc2[nH]1)C1CC(=O)N(c2ccc3c(c2)OCCO3)C1 (centres undefined),>57,?
COC(=O)c1ccccc1S(=O)(=O)N(CCCN1CCOCC1)Cc1cccs1,>57,·
Cc1cc(C)cc(OCCCC(=O)O)c1,>57,?
CCn1cc(Br)c(C(=O)Nc2ccc(F)c(Cl)c2)n1,·,?
COc1ccc2nc(SCC(N)=O)[nH]c2c1,>57,7%
O=c1[nH]c(=O)n(C2CCCCCC2)c(O)c1C=NCCCN1CCOCC1,>57,-7%
Cc1ccc(C(=O)NCCNC(=O)CN2CCCC2)cc1,·,-10%
CC(C)c1[nH]nc2c1C(c1ccc(OC(=O)c3ccco3)cc1)C(C#N)=C(N)O2 (centres undefined),·,10%
O=C(Nc1ccc2c(c1)oc1ccccc12)c1cccnc1,>57,-22%
Cn1c(CN2CCOCC2)nnc1SCC(=O)NC1CCCCC1,>57,-9%
O=C(Nc1ccc2c(c1)OCO2)Nc1ccc(Br)cn1,>57,-14%
O=C(NC1CCCC1)C1CC(=O)N(CCc2ccccc2)C1 (centres undefined),>57,·
O=C(NCc1ccccc1)[C@@H]1C[C@H]1[C@@H](NP(=O)(c1ccccc1)c1ccccc1)c1ccccc1,>57,7%
COc1ccc(S(=O)(=O)N2CN(Cc3ccco3)c3nc4ccccc4nc32)cc1,>57,·
Cc1ccnc(NC(=O)c2ccc(NC(=O)c3ccco3)cc2)c1,>57,0%
O=C(CN1C(=O)CSc2ccccc21)Nc1ccccc1C(=O)N1CCOCC1,>57,·
CCOc1ccc(CCNC(=O)C2CCCN(C(=O)N(C)C)C2)cc1OCC (centres undefined),>57,4%
CC(=O)NC(C(=O)NCC(N)=O)C(C)C (centres undefined),>57,-2%
Cn1c(=O)c2c(nc(OCc3ccccc3)n2C)n(C)c1=O,>57,-7%
CCOC(=O)N1CCN(c2c(-c3ccc(C)cc3)c(=O)c2=O)CC1,>57,?
COc1ccccc1N1CCN(C(=O)CN(Cc2ccccc2)S(C)(=O)=O)CC1,>57,-13%
Cn1c(=O)c2c(nc(Br)n2CCSc2nnnn2-c2ccccc2)n(C)c1=O,>57,?
COCc1[nH]nc2c1C(c1ccc(OC)c(OC)c1)C(C#N)=C(N)O2 (centres undefined),>57,2%
COc1cc2c3cc1Oc1c(OC)c(OC)cc4c1[C@@H](Cc1ccc(O)c(c1)Oc1ccc(cc1)C[C@@H]3N(C)CC2)N(C)CC4,>57,?
O=C(c1ccc2c(c1)OCO2)N(c1ccc(F)cc1)C1C=CS(=O)(=O)C1 (centres undefined),>57,6%

# Quoted at random: 3 entries already listed
SMILES,Prx2 Sm inh,Anthrax LT inh
Cn1c(=O)c2c(nc(Br)n2CCSc2nnnn2-c2ccccc2)n(C)c1=O,>57,?
COc1ccc(S(=O)(=O)N2CN(Cc3ccco3)c3nc4ccccc4nc32)cc1,>57,·
CC(C)c1[nH]nc2c1C(c1ccc(OC(=O)c3ccco3)cc1)C(C#N)=C(N)O2 (centres undefined),·,10%

# Ordered by number of heavy atoms (lowest first): some entries from above.
SMILES,Prx2 Sm inh,Anthrax LT inh
Cc1cc(C)cc(OCCCC(=O)O)c1,>57,?
O=C(Nc1ccc2c(c1)OCO2)Nc1ccc(Br)cn1,>57,-14%
CCOc1ccc(CCNC(=O)C2CCCN(C(=O)N(C)C)C2)cc1OCC (centres undefined),>57,4%
O=C(NCc1ccccc1)[C@@H]1C[C@H]1[C@@H](NP(=O)(c1ccccc1)c1ccccc1)c1ccccc1,>57,7%

# (continued)
SMILES,Prx2 Sm inh,Anthrax LT inh
COC(=O)c1[nH]c2ccccc2c1NC(=O)CN1CCN(c2cccc(Cl)c2)CC1,>57,-6%
O=C1c2ccccc2C(=O)N1CCCCSc1nnnn1-c1ccccc1,>57,-24%
Cc1ccccc1OCC(=O)N(Cc1ccc(N(C)C)cc1)C1CCS(=O)(=O)C1 (centres undefined),>57,-11%
O=S1(=O)CC(NCc2ccccc2)C(Nc2ccc(Cl)cc2)C1 (centres undefined),>57,-17%
Cn1c(=O)c2c(ncn2CCN(CCO)Cc2ccccc2)n(C)c1=O,>57,14%
CCOc1ccc(NC(=O)CCNS(=O)(=O)c2ccc3c(c2)c(=O)n(C)c(=O)n3C)cc1,>57,1%
Cc1ccc(NCc2nnc(SCCN3CCCCC3)n2CC2CCCO2)c(C)c1 (centres undefined),>57,-10%
COCCNC(=O)[C@@]1(Cc2ccccc2)C=C[C@@H](C)N1C(=O)OC,·,-7%
CCN1C(=O)/C(=C2\SC(=S)N(CCCOC)C2=O)c2ccccc21,>57,1%
O=C(CN(c1ccc(F)cc1)S(=O)(=O)c1ccccc1)NCc1ccco1,>57,-12%
COC(=O)N1CCC2(CCN(Cc3cc(C(F)(F)F)cc(C(F)(F)F)c3)CC2)CC1,>57,?
CC1=Nn2c(nnc2C2CCCCC2)SC1,>57,-12%
CCOc1ccc(-n2c(SCC(N)=O)nc3c(c2=O)SCC3)cc1,>57,1%
CCCCS(=O)(=O)C(=C1Nc2ccccc2N1)S(=O)(=O)CCCC,>57,7%
O=C(Nc1nnc(-c2ccccc2)s1)c1ccc(Cl)c(S(=O)(=O)N2CCOCC2)c1,>57,-1%
CCN(CC)C(=O)CN1C(=O)C2(OCC(C)(c3ccccc3)CO2)c2ccccc21 (centres undefined),>57,-7%
Cc1ccc2c(c1)C1CN(C)CCC1N2C(=O)c1ccc(Br)o1 (centres undefined),>57,?
CC1CC(C)CN(S(=O)(=O)c2ccc(C(=O)N3CCN(c4ccccc4)CC3)cc2)C1 (centres undefined),>57,-21%
COc1ccc(S(=O)(=O)N2CCCCC2C(=O)O)cc1OC (centres undefined),>57,-7%
CCc1nc(N2CCN(C(=O)c3ccco3)CC2)c2oc3ccccc3c2n1,>57,·
N#C/C(=C\c1cccs1)Sc1nc2ccccc2s1,>57,?
Cc1cccc(NC(=O)CN(C)S(=O)(=O)c2ccccc2)n1,>57,-6%

# Of the compounds above, these have a cyano group:
SMILES,Prx2 Sm inh,Anthrax LT inh
Cc1cccc(NC(=O)Nc2cccc(C#N)c2)n1,>57,1%
CC(C)c1[nH]nc2c1C(c1ccc(OC(=O)c3ccco3)cc1)C(C#N)=C(N)O2 (centres undefined),·,10%
COCc1[nH]nc2c1C(c1ccc(OC)c(OC)c1)C(C#N)=C(N)O2 (centres undefined),>57,2%
N#C/C(=C\c1cccs1)Sc1nc2ccccc2s1,>57,?

# Screening results deposited in PubChem BioAssay by National Center for Advancing Translational Sciences (NCATS).
